Vaccinia inh: Vaccinia orthopox stage-specific inhibition; Vaccinia-infected cells, mCherry/Venus stage reporter fluorescence; active compounds read low; some inactives read as strong as hits; activity change (mCherry), % (concentration not given with the values); 0.01% of 89,000 active; AID 1053133;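 active means mCherry past -33% and 40 or more points under the early reporter, replicates agreeing; inconclusive means past -33% without that gap or agreement; tested in A549 cells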;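 further: scaled between vehicle wells and reference inhibitor wells; 23 nL library stock went into each well; one replicate is shown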
Vaccinia inh Venus: recorded beside Vaccinia inh, whose call it bears; activity change (Venus), %; measured here: Venus reporter, other viral stage;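 negative = less Venus signal; first of two replicates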
Active calls of the source: *; ? = inconclusive; . = not tested or not shown; & = joins results of further samples.

SMILES | Vaccinia inh | Vaccinia inh Venus
O=S(=O)(c1ccc(-c2ccccc2)cc1)N1[C@@H]2CNC[C@H]1C2c1ccc(-c2cccnc2)cc1 (stereo partly drawn) | 18&-4 | 12&-1
COc1ccc(CNC(=O)C[C@@H]2C[C@H]3c4cc(NC(=O)NC5CCCC5)ccc4O[C@H]3[C@@H](CO)O2)cc1 | 5 | -3
C[C@H]1CN([C@@H](C)CO)C(=O)c2cc(C3=CCCCC3)cnc2O[C@@H]1CN(C)C(=O)c1ccc2c(c1)OCO2 | -25 | -38
O=C(C[C@H]1CC[C@@H](NC(=O)c2ccncc2)[C@H](CO)O1)NCC1CCCCC1 | -1 | -3
CS(=O)(=O)N1CC2(C1)[C@@H](c1ccccc1)[C@H](CO)N2C(=O)C1CCC1 | 9 | 4
COc1cccc(C#Cc2cnc3c(c2)C(=O)N([C@H](C)CO)C[C@@H](C)[C@@H](CN(C)C(=O)C2CC2)O3)c1 | 7 | -6
C[C@@H]1CN([C@H](C)CO)C(=O)c2cc(NC(=O)CCC(F)(F)F)ccc2O[C@H]1CN(C)S(=O)(=O)c1ccc(Cl)cc1 | -9 | -2
O=C(C[C@H]1CC[C@H]2[C@@H](COC[C@@H](O)CN2S(=O)(=O)c2cccc(F)c2)O1)Nc1ccccc1 | -2 | -8
COCc1cn([C@H]2C[C@@H]3O[C@H](CO)CC[C@@H]3O[C@@H]2CCc2ccc(-c3ccc(OC)cc3)cc2)nn1 | 7 | 4
CCCC#Cc1ccc([C@H]2[C@H]3CN(C(=O)c4ccc5c(c4)OCO5)CCCCN3[C@H]2CO)cc1 | ? | .
COc1ccc(S(=O)(=O)N(C)C[C@H]2OCCCC[C@H](C)Oc3ccc(NC(=O)CCCN(C)C)cc3C(=O)N([C@H](C)CO)C[C@@H]2C)cc1 | 15 | 0
COc1cccc(S(=O)(=O)N(C)C[C@H]2Oc3ncc(C#CC(C)C)cc3C(=O)N([C@H](C)CO)C[C@@H]2C)c1 | ? | .
O=C(C[C@@H]1CC[C@H](NC(=O)C2CCOCC2)[C@H](CO)O1)NCC1CCCCC1 | 7 | 15
C[C@@H]1CN([C@H](C)CO)C(=O)c2cccc(NS(=O)(=O)c3ccccc3)c2O[C@@H]1CN(C)C(=O)Nc1ccc(C(F)(F)F)cc1 | -15 | -17
CCCNC(=O)C[C@H]1C[C@H]2c3cc(N(C)C)ccc3O[C@H]2[C@@H](CO)O1 | 13 | 16
C[C@H](CO)N1C[C@H](C)[C@H](CN(C)S(=O)(=O)c2ccccc2)Oc2ncc(C#Cc3ccccc3)cc2C1=O | ? | .
N#C[C@@H]1[C@@H](c2ccccc2-c2ccc(F)cc2)[C@H](CO)N1c1ncc(-c2ccccc2)s1 | 9 | 8
C[C@@H]1CN([C@@H](C)CO)C(=O)Cc2cc(NC(=O)Cc3ccccc3)ccc2O[C@H]1CN(C)C(=O)Nc1cccc2ccccc12 | -2 | 0
C[C@@H]1CCCCO[C@@H](CN(C)S(=O)(=O)c2ccc(F)cc2)[C@@H](C)CN([C@@H](C)CO)C(=O)c2cc(NC(=O)CCCN(C)C)ccc2O1 | 8 | -9
C[C@@H](NC(=O)C[C@H]1C[C@H]2c3cc(NC(=O)NC4CCCC4)ccc3O[C@H]2[C@@H](CO)O1)c1ccccc1 | 5 | 6
CN(C)c1ccc2c(c1)[C@H]1C[C@H](CC(=O)O)O[C@@H](CO)[C@H]1O2 | 0 | 1
O=C(Nc1ccccc1F)N1CC(=O)N2[C@@H](CO)[C@@H](c3ccc(-c4cccnc4)cc3)[C@@H]2C1 | -2 | -3
CCC(=O)N(CC)C[C@H]1[C@H](c2ccccc2)[C@@H](CO)N1C(=O)C1CCC1 | 7 | 7
N#Cc1ccc(-c2ccc([C@@H]3[C@H]4CN(C(=O)C5CC5)CC(=O)N4[C@H]3CO)cc2)cc1 | -13 | -10
CN(C)CC#Cc1ccc([C@@H]2[C@@H](CO)N3CCCCN(C(=O)Nc4ccccc4F)C[C@@H]23)cc1 | 9 | 12
CO[C@H](CN(C)C(=O)C1CC1)[C@@H](C)CN(C(=O)Nc1ccc(C(F)(F)F)cc1)[C@H](C)CO | -17 | -9
COc1cccc(-c2ccc([C@@H]3[C@@H](CO)N4CCCCN(CC5CC5)C[C@@H]34)cc2)c1 | -27 | -18
COC(=O)C[C@H]1CC[C@H]2[C@H](COc3ccc(NC(=O)NC(C)C)cc3C(=O)N2C)O1 | 1 | -3
C[C@H](CO)N1C[C@H](C)[C@H](CN(C)Cc2ccc3c(c2)OCO3)Oc2ccc(NC(=O)Nc3ccc(C(F)(F)F)cc3)cc2CC1=O | ? | .
CCCC#Cc1cnc2c(c1)C(=O)N([C@@H](C)CO)C[C@@H](C)[C@@H](CN(C)C(=O)c1ccccc1)O2 | -15 | -6

Of the compounds above, these have a cyano group.
SMILES | Vaccinia inh | Vaccinia inh Venus
N#C[C@@H]1[C@@H](c2ccccc2-c2ccc(F)cc2)[C@H](CO)N1c1ncc(-c2ccccc2)s1 | 9 | 8
N#Cc1ccc(-c2ccc([C@@H]3[C@H]4CN(C(=O)C5CC5)CC(=O)N4[C@H]3CO)cc2)cc1 | -13 | -10

Next records.
SMILES | Vaccinia inh | Vaccinia inh Venus
C[C@H](CO)N1C[C@H](C)[C@H](CN(C)C(=O)c2ccncc2)OCCCC[C@H](C)Oc2ccc(NC(=O)CCCCCC(=O)Nc3ccccc3N)cc2C1=O | 6 | 5
Cc1cccc(S(=O)(=O)N2CC[C@@H]3[C@H]2c2cc(C#Cc4ccc(F)cc4)ccc2N[C@@H]3CO)c1 | 0 | 1
COCC(=O)Nc1ccc2c(c1)[C@H]1C[C@H](CC(=O)NCc3cccc(F)c3)O[C@@H](CO)[C@H]1O2 | 3 | 0
CO[C@@H]1CC[C@H]2CCOc3c(C#N)cccc3C(=O)N(C)[C@@H](C)C(=O)N(C)C[C@H]1O2 | 13 | 5
C[C@H]1CCCCO[C@@H](CN(C)C)[C@@H](C)CN([C@@H](C)CO)C(=O)c2cc(NC(=O)c3ccncc3)ccc2O1 | -1 | 5
c1cncc(CN2C[C@@H]3N[C@H](C2)C3c2ccc(-c3cccnc3)cc2)c1 (stereo partly drawn) | -32 | -21
CCC(=O)Nc1ccc2c(c1)C(=O)N(C)C[C@H](OC)[C@H](C)CN(C(=O)NC(C)C)[C@@H](C)CO2 | 2 | 1
COc1ccccc1-c1ccc2n(c1=O)C[C@H]1[C@H](CO)[C@@H](C(=O)N3CCCCC3)N(C)[C@@H]21 | -2 | 2
O=C(C[C@@H]1CC[C@H]2[C@@H](COC[C@H](O)CN2C(=O)Nc2cc(Cl)cc(Cl)c2)O1)N1CCCCC1 | -16 | -13
N#C[C@H]1[C@@H](c2ccc(C#CC3(O)CCCC3)cc2)[C@H](CO)N1C(=O)C1CCC1 | 14 | 10
C[C@@H]1CN([C@H](C)CO)C(=O)c2cc(NC(=O)CCCN(C)C)ccc2O[C@@H](C)CCCCO[C@@H]1CN(C)C(=O)Nc1ccccc1 | 12 | 12
NC(=O)NCC#Cc1ccc2c(c1)[C@]1(C(=O)N2)[C@H](C(=O)O)[C@H]2C(=O)O[C@H](c3ccccc3)[C@H](c3ccccc3)N2[C@@H]1c1ccc(O)cc1 | 16 | 4
Cc1noc(C)c1S(=O)(=O)Nc1ccc2c(c1)C(=O)N([C@@H](C)CO)C[C@H](C)[C@@H](CN(C)S(=O)(=O)c1ccc(Cl)cc1)OCCCC[C@H](C)O2 | -24 | -17
O=C(C[C@@H]1CC[C@H]2[C@@H](COC[C@@H](O)CN2Cc2ccc3c(c2)OCO3)O1)N1CCOCC1 | 43 | 25
CCC(=O)Nc1ccc2c(c1)OC[C@H](C)N(CC1CC1)C[C@@H](C)[C@@H](OC)CN(C)C2=O | 9 | 9
Cc1ccccc1-c1cnc2c(c1)C(=O)N([C@H](C)CO)C[C@H](C)[C@@H](CN(C)C(=O)CN(C)C)O2 | 11 | 8
O=C(NCc1cc(F)cc(F)c1)[C@H]1[C@H](CO)[C@H]2Cn3c(cccc3=O)[C@@H]1N2C(=O)Cc1ccccn1 | 10 | 11
COc1ccc(C#Cc2cnc3c(c2)C(=O)N([C@H](C)CO)C[C@H](C)[C@H](CN(C)Cc2ccccc2)O3)cc1OC | -32 | -37
Cc1noc(C)c1S(=O)(=O)N(C)C[C@@H]1OCCCC[C@@H](C)Oc2ccc(NC(=O)NC3CCCCC3)cc2C(=O)N([C@H](C)CO)C[C@H]1C | ? | .
C[C@@H]1CN([C@@H](C)CO)C(=O)c2cc(NS(=O)(=O)c3ccc(F)cc3)ccc2O[C@H]1CN(C)C | -2 | 5
C[C@@H]1CN([C@@H](C)CO)C(=O)c2cc(NC(=O)C3CCCCC3)ccc2O[C@@H](C)CCCCO[C@H]1CN(C)Cc1ccc(Cl)c(Cl)c1 | ? | .
CCCNC(=O)N(C)C[C@H]1Oc2cc(-c3ccc(C)cc3)ccc2S(=O)(=O)N([C@@H](C)CO)C[C@@H]1C | ? | .
Cc1ccccc1CN(C)C[C@@H]1OCc2cn(nn2)CCCC(=O)N([C@@H](C)CO)C[C@@H]1C | -6 | 3
CNC[C@H]1OCCCC[C@H](C)Oc2ccc(NC(=O)Nc3ccc4c(c3)OCO4)cc2C(=O)N([C@@H](C)CO)C[C@@H]1C | 2 | 1
O=C(C[C@@H]1C=C[C@@H](NC(=O)c2ccccn2)[C@H](CO)O1)NCc1cc(F)cc(F)c1 | -5 | 6
COc1cccc(S(=O)(=O)N[C@@H]2CC[C@H](CC(=O)NC3Cc4ccccc4C3)O[C@H]2CO)c1 | -12 | -7
CN(C)C(=O)C[C@H]1CC[C@H]2[C@@H](COc3ccc(NS(=O)(=O)c4cccc(F)c4)cc3C(=O)N2C)O1 | 3 | 5
O=C(CCN1CCCCC1)N[C@H]1CC[C@H](CCNS(=O)(=O)c2ccc(F)cc2)O[C@@H]1CO | 12 | 5
C[C@@H]1CCCCO[C@@H](CN(C)C(=O)c2ccccc2)[C@@H](C)CN([C@H](C)CO)C(=O)c2cc(NC(=O)CCCN(C)C)ccc2O1 | 1 | 5
O=C(C[C@H]1CC[C@@H]2[C@H](COC[C@H](O)CN2C(=O)Nc2cc(Cl)cc(Cl)c2)O1)N1CCOCC1 | -5 | 1
C[C@H](CO)N1C[C@H](C)[C@@H](CN(C)Cc2ccc(C(=O)O)cc2)Oc2c(NC(=O)C3CCCCC3)cccc2C1=O | -2 | -1
C[C@H](CO)N1C[C@H](C)[C@H](CN(C)S(=O)(=O)c2ccc(F)cc2)OCCCC[C@H](C)Oc2ccc(N(C)C)cc2C1=O | -16 | -23
CC(C)CC#Cc1ccc([C@H]2[C@@H](CO)N3C(=O)CN(C(=O)CN4CCOCC4)C[C@@H]23)cc1 | 15 | 7
O=C(NCc1ccc(F)cc1)[C@@H]1[C@@H](CO)[C@@H]2Cn3c(cccc3=O)[C@H]1N2 | 6 | 9
CC(C)NC(=O)Nc1ccc2c(c1)C(=O)N([C@@H](C)CO)C[C@@H](C)[C@@H](CN(C)S(=O)(=O)c1cccs1)OCCCC[C@@H](C)O2 | 4 | 4
C[C@@H]1CN([C@H](C)CO)C(=O)Cc2cc(NC(=O)c3ccncc3)ccc2O[C@H]1CN(C)C | 10 | 7
C[C@@H]1CN([C@@H](C)CO)C(=O)c2cc(NC(=O)Nc3ccc(F)cc3)ccc2O[C@H]1CN(C)S(C)(=O)=O | 6 | 3
O=C(C[C@H]1CC[C@H]2[C@@H](COC[C@H](O)CN2Cc2nccs2)O1)NCc1ccc(-c2ccccc2)cc1 | -29 | -23
O=C(N[C@@H]1CC[C@@H](CCNC(=O)C2CCCC2)O[C@H]1CO)c1ccccn1 | 4 | 3
C[C@@H]1CN([C@H](C)CO)C(=O)c2cc(NS(C)(=O)=O)ccc2O[C@@H]1CN(C)C(=O)Nc1ccc(C(F)(F)F)cc1 | 10 | 11
CCc1nc(N2[C@H](C#N)[C@@H](c3ccccc3-c3ccc(F)cc3)[C@@H]2CO)sc1C | 5 | 3
C/C=C/c1cnc2c(c1)C(=O)N([C@@H](C)CO)C[C@H](C)[C@H](CN(C)S(=O)(=O)c1cn(C)cn1)O2 | 11 | -2
C[C@@H]1CCCCO[C@@H](CN(C)C(=O)C2CCCCC2)[C@@H](C)CN([C@H](C)CO)C(=O)c2cc(NC(=O)Nc3ccc4c(c3)OCO4)ccc2O1 | 12 | -2
C[C@H](CO)N1C[C@H](C)[C@H](CN(C)S(=O)(=O)c2cccc(F)c2)Oc2ncc(C#Cc3ccccc3)cc2C1=O | 0 | -11
O=C(C1=C[C@H](c2ccc(C(F)(F)F)cc2)C[C@H](OCCCCO)O1)N1CCN(Cc2ccc3c(c2)OCO3)CC1 | ? | .
O=C(Nc1ccc(F)cc1)N1CC(=O)N2[C@H](CO)[C@@H](c3ccc(-c4ccc(F)cc4)cc3)[C@@H]2C1 | ? | .
COC(=O)C[C@H]1CC[C@@H]2[C@H](COc3ccc(NC(=O)c4ccc(F)c(F)c4)cc3C(=O)N2C)O1 | 8 | 9
C[C@@H]1CN([C@H](C)CO)C(=O)Cc2cc(NC(=O)Nc3ccccc3)ccc2O[C@H]1CN(C)S(=O)(=O)c1ccccc1 | 13 | 11
O=C(C[C@@H]1CC[C@H]2[C@@H](COC[C@@H](O)CN2C(=O)Nc2ccc(F)cc2)O1)NC1Cc2ccccc2C1 | 23 | 6

Laid out differently: entries from further up
Values run as follows: Vaccinia inh, Vaccinia inh Venus
COc1ccccc1-c1ccc2n(c1=O)C[C@H]1[C@H](CO)[C@@H](C(=O)N3CCCCC3)N(C)[C@@H]21
  -2, 2
O=C(C[C@@H]1CC[C@H]2[C@@H](COC[C@H](O)CN2C(=O)Nc2cc(Cl)cc(Cl)c2)O1)N1CCCCC1
  -16, -13
N#C[C@H]1[C@@H](c2ccc(C#CC3(O)CCCC3)cc2)[C@H](CO)N1C(=O)C1CCC1
  14, 10
C[C@@H]1CN([C@H](C)CO)C(=O)c2cc(NC(=O)CCCN(C)C)ccc2O[C@@H](C)CCCCO[C@@H]1CN(C)C(=O)Nc1ccccc1
  12, 12
NC(=O)NCC#Cc1ccc2c(c1)[C@]1(C(=O)N2)[C@H](C(=O)O)[C@H]2C(=O)O[C@H](c3ccccc3)[C@H](c3ccccc3)N2[C@@H]1c1ccc(O)cc1
  16, 4

Screening results as filed in PubChem.

These rows are one share of the data; the hit share may differ from the screen's.
